Mtb growth: M. tuberculosis H37Rv growth inhibitors, H37Rv strain (AID 1626); one-dose inhibition, % at 10 µM; IC50 in µM for titrated hits; 220,000 compounds, 0.95% hits; M. tuberculosis H37Rv growth inhibition; higher % means a stronger effect;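 active = confirmed in a dose series; inconclusive = inhibition above 80% but not taken into the dose series; inactive = below 80% or under 30% at every dose of the series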;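 note: bacteria incubated seven days before Alamar blue readout; 0% = bacteria only wells and 100% = bacteria with antibiotic wells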
Mtb betalactam: beta-lactam sensitization of Mtb H37Rv, H37Rv; inhibition, % at 25 µM; 330,000 compounds, 0.27% hits; AID 434955, 2010; M. tuberculosis H37Rv growth with meropenem, percent inhibition; hits of this screen are not shown here;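 active = about 74% or more and at least 40 points above the plate without the antibiotic, then above 30% in a dose series; inconclusive = first-round hits that could not be retested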;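 note: growth measured after seven days incubation then overnight dye step; 0% = bacteria only wells and 100% = bacteria with antibiotic; twin plates without the antibiotic show which effects depend on it; some results filed as inactive read as strong as hits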
Arbovirus inh: antivirals against arbovirus infection, primary screen, cell-based, full library, 10K replicate subset | arbovirus infection cell-based antiviral screen | AID 1251, 2008 | inhibition, % at 10 µM | 200,000 compounds, 0.37% hits;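 active = inhibition from about 30%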;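 note: bluetongue infection of BSR cells; cell survival read as ATP light after 72 h; 0% = infected wells without compound and 100% = uninfected wells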
YopH PTP inh: YopH tyrosine phosphatase inhibitors, primary screen, biochemical, fluorescence Ex485/Em525 | YopH tyrosine phosphatase [Yersinia enterocolitica] | inhibition, %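 (about 10 µM by stock and volumes)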 | 140,000 compounds, 0.16% hits;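 active = inhibition of 50% or more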;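 note: controls were vehicle for no effect and minimum signal wells for full effect; inactives centre near -20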
RecA intein inh: Mtb RecA intein splicing inhibitors, primary screen, biochemical, fluorescence, HTS; Protein RecA (Mycobacterium tuberculosis (strain ATCC 25618 / H37Rv)), P9WHJ3; cell-free RecA intein splicing; inhibition, %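 (about 9 µM by stock and volumes)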; 290,000 compounds, 0.75% hits; in the data active = inhibition above about 30%; inconclusive = no clear call, values can overlap the other calls;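 note: 0% = vehicle wells and 100% = reference inhibitor control wells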
Target sequence (P9WHJ3 whole entry, looked up): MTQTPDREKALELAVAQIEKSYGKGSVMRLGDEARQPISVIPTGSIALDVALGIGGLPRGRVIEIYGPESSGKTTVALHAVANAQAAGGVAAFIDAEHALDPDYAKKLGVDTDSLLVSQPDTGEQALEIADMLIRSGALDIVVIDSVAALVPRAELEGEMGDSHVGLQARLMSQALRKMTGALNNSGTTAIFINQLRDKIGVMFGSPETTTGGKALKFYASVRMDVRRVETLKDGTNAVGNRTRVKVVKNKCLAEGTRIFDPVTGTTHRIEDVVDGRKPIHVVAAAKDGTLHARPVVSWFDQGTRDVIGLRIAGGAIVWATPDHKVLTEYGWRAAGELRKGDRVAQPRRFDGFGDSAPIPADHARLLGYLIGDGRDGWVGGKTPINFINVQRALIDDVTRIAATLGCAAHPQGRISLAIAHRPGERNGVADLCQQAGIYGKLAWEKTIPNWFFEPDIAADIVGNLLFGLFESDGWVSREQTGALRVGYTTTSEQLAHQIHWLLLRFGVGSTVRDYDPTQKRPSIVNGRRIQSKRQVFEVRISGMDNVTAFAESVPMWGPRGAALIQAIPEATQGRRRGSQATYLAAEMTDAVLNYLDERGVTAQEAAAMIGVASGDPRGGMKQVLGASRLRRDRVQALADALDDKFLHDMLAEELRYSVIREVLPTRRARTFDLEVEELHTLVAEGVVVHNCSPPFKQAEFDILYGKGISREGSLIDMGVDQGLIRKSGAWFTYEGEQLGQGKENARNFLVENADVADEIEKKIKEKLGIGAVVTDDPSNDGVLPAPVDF
Arbovirus inh repeat: recorded beside Arbovirus inh, whose call it bears; inhibition, %; measured here: 10K subset replicate screen; many hits read low in the repeat;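 first of two repeat runs on a subset; 0% = infected and 100% = uninfected wells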
Active calls of the source: *; ? = inconclusive; · = no result given.

SMILES	Mtb growth	Mtb betalactam	Arbovirus inh	YopH PTP inh	RecA intein inh	others
CC(OC(=O)CN1C(=O)NC2(CCCC2)C1=O)C(=O)Nc1cccc(Cl)c1 (configuration not stated)	·	-14	·	·	0.5
CCOC(=O)c1ccc(NC(=O)C2COc3ccccc3O2)cc1 (configuration not stated)	·	84	·	·	-1.5
Cc1cc(C)c2cc(CN(Cc3ccco3)C(=S)NCC3CCCO3)c(=O)[nH]c2c1 (configuration not stated)	-2%	1	-8	·	4.9
COC(=O)c1ccc(N2CCN(C)CC2)c(NC(=O)c2ccc(Br)o2)c1	·	-9	·	·	0.6
CCCC[n+]1c(-c2ccc(Cl)cc2Cl)csc1Nc1ccccc1	5%	4	-9	-42	8.6
Nn1c(SCc2ccccc2)nnc1-c1ccco1	0%	-1	2	1	-1.2	Arbovirus inh repeat=-1
NC(=O)CC(NC(=O)Cc1ccc(Br)cc1)c1ccc(NC2CCCC2)c([N+](=O)[O-])c1 (configuration not stated)	-2%	10	·	·	2.1
CCOC(=O)C1=C(C)N(CC)C(=S)NC1c1ccc(Cl)cc1 (configuration not stated)	5%	-1	17	-15	3.6
COc1cc(OC)cc(OC(=O)C2CCN(S(=O)(=O)c3ccc(OC)c(OC)c3)CC2)c1	·	-8	·	·	1.7
COc1ccc(NC(=O)c2cccc(S(=O)(=O)N3CCOCC3)c2)cc1	·	-2	·	·	5.0
COc1ccccc1Nc1nc(-c2c(C)[nH]c3ccccc23)cs1	-3%	-8	-7	-7	·
COc1ccc(NC(=O)Cn2nc(Cc3cccnc3)c3ccccc3c2=O)cc1OC	-9%	2	5	-23	1.2
COc1cc(OC)cc(-n2nnnc2SCC(=O)Nc2ccc(C(C)=O)cc2)c1	0%	-10	-4	-6	1.5
O=C(CSCc1ccc([N+](=O)[O-])cc1)NC1CCCCCC1	-4%	-6	0	·	1.2
COc1ccc(CNC(=O)[C@H](CCSC)NC(=O)N2CCn3c2nc2ccccc23)cc1	·	5	·	·	-1.9
CC(=O)c1cccc(NC(=O)Cn2c(=O)oc3cc(S(=O)(=O)N4CCCC4)ccc32)c1	-15%	-7	·	·	2.3
COc1ccc(NS(=O)(=O)c2cccc(C(=O)N/N=C/c3cccs3)c2)cc1	2%	-1	0	-39	-4.2
O=C(Nc1cccc(S(=O)(=O)N2CCOCC2)c1)c1c2c(nc3ccccc13)CCC2	-7%	8	17	-16	2.1
CC(=O)c1cc(C(=O)Nc2ccc(C(=O)O)cc2)oc1C	-6%	10	8	8	-0.6
CCN1CC(CN(C)Cc2nc(-c3ccc(C(F)(F)F)cc3)no2)CC1=O (configuration not stated)	-1%	-9	11	·	0.2
Cc1ccc(S(=O)(=O)N2CCN(c3ccccn3)CC2)cc1	7%	-1	·	·	3.1
c1ccc2c(c1)CC(N1CCCCC1)c1ccccc1S2 (configuration not stated)	·	0	·	·	1.8
CN(Cc1nc(-c2ccccn2)no1)S(=O)(=O)c1ccc(Cl)cc1	-8%	-4	4	-6	0.3
Cc1nnc(NCc2ccccc2)c2ccccc12	·	26	·	·	-1.6
CC(=O)N(c1cccc(C)c1)C1SC(=O)N(c2ccccc2)C1=O (configuration not stated)	-4%	-13	-3	-48	-0.9
CCOC(=O)c1c(C)[nH]c(C)c1S(=O)(=O)N1CCOCC1	·	0	·	·	-1.8
Cc1ccn2c(=O)c(NC(=O)c3cccc4ccccc34)c(C)nc2c1	·	-15	·	·	0.1
CNc1nc(C)c(C#N)cc1C(C)=O	-2%	-6	8	22	-0.9
CC(OC(=O)c1ccc(O)cc1)C(=O)Nc1cc(C(F)(F)F)ccc1Cl (configuration not stated)	2%	-4	·	·	4.3
CC(=O)c1cccc(N(CC(=O)NCCc2ccccc2)C(=O)c2csnn2)c1	·	4	·	·	0.9
CCOC(=O)Cc1csc(NC(=O)c2cccc(N3C(=O)CCC3=O)c2)n1	-8%	3	5	-49	0.1
O=C(/C=C/c1cccs1)c1cc(Cl)ccc1O	1%	2	-15	·	0.7
CC1CCN(c2c(NCC3CCC(C(=O)Nc4ccccn4)CC3)c(=O)c2=O)CC1 (configuration not stated)	·	-6	-1	-14	-0.9
COc1ccc(NC(=O)C(NC(=O)c2ccccc2)C(C)C)cc1 (configuration not stated)	0%	8	2	-23	-0.1
OCCCn1c(C2CCCN2c2nc(-c3ccc(Cl)cc3)cs2)nc2cc(C(F)(F)F)ccc21 (configuration not stated)	1%	25	·	·	2.1
CCc1cc2c(SCC(=O)c3ccc(C)cc3)ncnc2s1	-7%	0	6	-14	1.0

Quoted at random: 2 entries already listed, in no set order.
SMILES	Mtb growth	Mtb betalactam	Arbovirus inh	YopH PTP inh	RecA intein inh	others
CCc1cc2c(SCC(=O)c3ccc(C)cc3)ncnc2s1	-7%	0	6	-14	1.0
OCCCn1c(C2CCCN2c2nc(-c3ccc(Cl)cc3)cs2)nc2cc(C(F)(F)F)ccc21 (configuration not stated)	1%	25	·	·	2.1

Remaining list, next part:
SMILES	Mtb growth	Mtb betalactam	Arbovirus inh	YopH PTP inh	RecA intein inh	others
CCOC(=O)N1CCN(C(=O)CN(c2cccc(C)c2)S(=O)(=O)c2ccc(C)cc2)CC1	3%	1	3	-18	1.5
COc1cccc(-c2c(C(=O)N/N=C/c3ccoc3)nnn2-c2nonc2N)c1	·	4	·	·	0.7
C=CCSc1nc2ccccc2c2nc(-c3ccccc3)nn12	4%	-11	-19	2	-1.1
CCOCCCNC(=O)CCSc1ccc(C)cc1	2%	5	-4	-31	1.6
CCc1ccc(NC(=O)COc2ccc(F)cc2C(=O)c2cnn(-c3ccccc3)c2)cc1	2%	2	-6	-48	0.2
O=C(O)Cc1ccc(NC(=O)c2cccs2)cc1	2%	-3	3	-6	-3.8
CCOCCOC(=O)c1ccc(-n2cnc(C)n2)nc1	2%	1	-5	·	1.5
Nc1nnc(CCCCCCCCCCc2nnc(N)s2)s1	-2%	5	3	·	0.6
O=C(Cn1ccc2cc(S(=O)(=O)N3CCCCC3)ccc21)NCc1ccccc1F	·	-1	·	·	0.6
O=C(CCC1CCN(Cc2ccccc2Cl)CC1)NC1CC1	·	-4	·	·	-0.1
CCN(CC)Cc1c(O)ccc2c(=O)c(-c3ccccc3Cl)coc12	·	0	·	·	-3.2
Cc1cc(C)n2nc(SCc3cccc(F)c3)nc2n1	·	5	·	·	-0.2
COc1ccc(-c2cc(CN3C(=O)c4ccccc4C3=O)on2)cc1	-2%	7	·	-35	-2.2
Cc1cc(CN2CCCC(C(=O)Nc3ccc(-c4nc5ccccc5[nH]4)cc3)C2)n[nH]1 (configuration not stated)	·	-1	·	·	-1.3
CCOC(=O)c1c(-c2ccc(C)o2)csc1NC(=O)CSc1nnnn1-c1ccccc1	8%	4	-1	-6	5.6
CCOC(=O)c1ccc(N/C=C/C(=O)c2ccc(OC)c(OC)c2)cc1	3.4µM*	100	5	-21	-37
O=c1cc(-c2ccco2)oc2c1ccc1ccccc12	4%	43	-2	-14	-0.7
COc1ccc(-c2nc3cc(C)ccn3c2NCC2CCCO2)cc1OC (configuration not stated)	5%	-7	·	10	-15
COc1ccccc1NC(=O)c1c(NC(=O)CCC(=O)O)sc2c1CCCCC2	-9%	-4	·	·	-1.9
O=C(O)c1cccc(S(=O)(=O)Nc2ccc([N+](=O)[O-])cc2O)c1	-8%	4	·	·	0.5
O=C(CSc1nc(=O)n2ccccc2n1)Nc1ccc2c(c1)OCCO2	·	-15	·	·	-1.0
CCOc1ccc(CCN2C(=O)CCC2(C)C(=O)NC(C)CC)cc1OCC (configuration not stated)	-10%	?	4	-41	-5.3
CC1CN(S(=O)(=O)c2cc(C(=O)N(CCc3ccccc3)Cc3ccccc3)ccc2Cl)CC(C)O1 (configuration not stated)	·	-9	·	·	5.0
NC(=S)N/N=C\c1ccccc1OCc1ccccc1	41%	64	-27	-22	4.5
CC(C)CC(=O)N1CCN(c2ccc([N+](=O)[O-])c(NCc3ccccc3)c2)CC1	·	·	·	-38	7.3
O=C(CSc1nnc(Cn2c(=O)sc3ccccc32)n1-c1ccccc1)NCc1ccco1	1%	5	2	-35	·	Arbovirus inh repeat=-2
O=[N+]([O-])c1ccc(N2CCN(c3ccc(Cl)nn3)CC2)c(Cl)c1	5%	-3	0	1	-2.3
Cc1ccc(CNC(=O)Cn2c(=O)c3sccc3n(Cc3cccc([N+](=O)[O-])c3)c2=O)cc1	1%	4	-23	-21	-1.5
COc1ccc2nc(SCC(=O)Nc3nccs3)[nH]c2c1	6%	5	-5	·	2.8
CC1OC(OCC2OC(Oc3c(-c4ccc(O)cc4)oc4cc(O)cc(O)c4c3=O)C(O)C(O)C2O)C(O)C(O)C1O (configuration not stated)	-1%	-2	4	·	·
CCOC(=O)c1c[nH]n(-c2ccc(C)cc2)c1=O	-7%	12	10	·	3.4
CCCCN(C(=O)NC(=O)Nc1cc(C)ccc1C)S(C)(=O)=O	6%	-6	2	-36	3.1
CCn1cc(S(=O)(=O)c2cccc(C)c2)c(=O)c2cc(F)c(N3CCN(C)CC3)cc21	·	?	·	·	0.4
CCn1c(SCC(=O)Nc2nc(C)c(C(=O)OC)s2)nnc1C(C)C	-2%	-6	4	4	-0.7
Cc1ccc(C)c(NC(=O)CCc2ccc(C)o2)c1	·	25	·	·	-16
Cc1cccn2cc(-c3ccc(F)cc3)nc12	-1%	4	-2	-38	0.9	Arbovirus inh repeat=0
CC(O)C(O)C(O)C(O)C1NCCS1 (configuration not stated)	2%	-8	7	-38	-2.6
CCNC(=O)NC(=O)CSc1nc2ccccc2n1CC(C)C	4%	-1	1	-113	0.0
CCN(CC)CCCN=Cc1c(O)n(-c2ccccc2C)c(=O)c2ccccc12	-20%	-8	·	·	-4.5
COc1ccccc1CNC(=O)COC(=O)c1nc(Cl)ccc1Cl	·	-2	·	·	1.0
Cn1c(SCC(=O)n2c3c(c4ccccc42)CCCC3)nnc1-c1ccccc1	-12%	-5	3	5	0.2
O=C(CSc1ncn(-c2ccccc2)n1)Nc1ccc(Br)cn1	-12%	-6	3	8	6.8
COc1ccc2[nH]c(C(=O)O)c(CCN3C(=O)c4cccc([N+](=O)[O-])c4C3=O)c2c1	-7%	7	·	·	·
Cc1cc(C)nc(SCc2cn3cc(Cl)ccc3n2)n1	-1%	-4	-7	-36	0.1
CCOC(=O)N1CCN(CC(O)COC2CC(C)CC(C)(C)C2)CC1 (configuration not stated)	2%	-3	1	-31	0.8
COc1ccc(C)c(S(=O)(=O)Nc2ccc(OCC(=O)O)cc2)c1	-5%	-5	2	-22	0.5	Arbovirus inh repeat=3
CC1(C)CC(N(Cc2ccc(F)cc2)C(=O)c2ccc(F)cc2)CCO1 (configuration not stated)	-7%	4	·	·	3.5
Cn1c(=O)c(C(=O)CN2CCOCC2)c(N)n(Cc2ccccc2)c1=O	1%	-6	4	-46	-0.6

The last 6 entries of the part before are carried over, then new ones follow:
SMILES	Mtb growth	Mtb betalactam	Arbovirus inh	YopH PTP inh	RecA intein inh	others
COc1ccc2[nH]c(C(=O)O)c(CCN3C(=O)c4cccc([N+](=O)[O-])c4C3=O)c2c1	-7%	7	·	·	·
Cc1cc(C)nc(SCc2cn3cc(Cl)ccc3n2)n1	-1%	-4	-7	-36	0.1
CCOC(=O)N1CCN(CC(O)COC2CC(C)CC(C)(C)C2)CC1 (configuration not stated)	2%	-3	1	-31	0.8
COc1ccc(C)c(S(=O)(=O)Nc2ccc(OCC(=O)O)cc2)c1	-5%	-5	2	-22	0.5	Arbovirus inh repeat=3
CC1(C)CC(N(Cc2ccc(F)cc2)C(=O)c2ccc(F)cc2)CCO1 (configuration not stated)	-7%	4	·	·	3.5
Cn1c(=O)c(C(=O)CN2CCOCC2)c(N)n(Cc2ccccc2)c1=O	1%	-6	4	-46	-0.6
O=C(CN1C(=O)C2C3CCC(C3)C2C1=O)N1CCN(Cc2ccccc2)CC1 (configuration not stated)	-4%	-9	-3	·	3.3
O=C(COC(=O)c1cc(=O)[nH]c2ccccc12)Nc1nc(-c2cccc(Br)c2)cs1	-3%	7	0	-27	4.7
Cn1c2c(c(=O)n(C)c1=O)C(c1ccccc1Cl)C(C#N)=C(N)O2 (configuration not stated)	-5%	-3	·	·	0.0
COCCn1c(=S)[nH]c2cc(C(=O)NCCc3ccc(OC)c(OC)c3)ccc2c1=O	-4%	2	4	-3	-0.4
COc1ccccc1C(=O)NCCNC(=O)c1ccco1	-5%	-2	1	13	-0.3
COc1ccc2[nH]c(C(O)(Cc3cccnc3)Cc3cccnc3)cc2c1	-3%	0	-17	-29	2.4
CCn1c(SCC(=O)c2[nH]c(C)c(C(C)=O)c2C)nnc1-c1ccncc1	10%	3	-5	-4	0.9
Cc1cc(/C=C2\C(=O)NC(=O)N(c3cccc(F)c3)C2=O)c(C)n1-c1cc(C(=O)O)cc(C(=O)O)c1	-3%	2	1	·	1.4

Compound activity from PubChem BioAssay.

Some of the compounds tested; rates above refer to the full screens.
